# High-throughput results as filed in PubChem.
# INS promoter inh: TRM-6 insulin promoter activity inhibition. TRM-6 cells (human fetal islet line), insulin promoter-eGFP reporter, imaging; reporter expression induced with tamoxifen. inhibition, % at 2 µM. 130,000 compounds, 0.9% hits;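 active = inhibition above the mean plus 3 SD, with well images judged a real hit on visual review, cut at about 60% in these data, passing the limit was not always enough; inconclusive = inhibition over the cutoff but images rejected on review; inactive = inhibition not above the cutoff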
# GALR2 agonist: agonists of human galanin receptor 2 (GALR2) | GALR2-expressing cells, agonist activation read-out | AID 803 | 140,000 compounds, 0.48% hits | activation, %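 (tested at 5 µM)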;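 active = above mean plus 3 SD of all compounds, about 5% in these data, not always enough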;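 also: 0% = vehicle buffer wells and 100% = reference agonist at full effect; tested in CHO reporter cells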
# Target sequence (O43603 whole entry, looked up): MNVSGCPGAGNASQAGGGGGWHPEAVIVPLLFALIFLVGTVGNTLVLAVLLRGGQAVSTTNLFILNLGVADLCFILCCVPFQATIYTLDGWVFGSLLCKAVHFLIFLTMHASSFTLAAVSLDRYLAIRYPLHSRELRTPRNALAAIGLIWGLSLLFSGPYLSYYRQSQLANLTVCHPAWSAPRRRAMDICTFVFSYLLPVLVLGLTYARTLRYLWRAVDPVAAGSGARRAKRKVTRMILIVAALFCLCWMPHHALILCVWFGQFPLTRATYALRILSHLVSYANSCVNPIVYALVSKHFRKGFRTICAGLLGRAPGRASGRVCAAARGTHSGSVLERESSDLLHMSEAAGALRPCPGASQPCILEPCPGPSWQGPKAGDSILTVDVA
# HSV replic up: increases HSV replication in cells | HSV replication augmentation in cells, fold increase | maximum fold increase | 220,000 compounds, 0.005% hits | AID 1956;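 active = peak rise of 1.5-fold or more in the series; inconclusive = self-fluorescent or not available for retest; tested in PC3 cells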;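 also: first round at 10 µM; read as green reporter fluorescence; hits show the peak of a series up to 25 µM; 1 = signal of infected wells without compound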
# PKD1 kinase inh: blocks activity of human protein kinase D1; Q15139; PKD1 kinase fluorescence polarization assay; inhibition, %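 (about 10 µM by stock and volumes)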; 200,000 compounds, 0.056% hits;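 active = inhibition of 50% or more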;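 also: controls were vehicle for no effect and a reference inhibitor for full effect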
# RGS16-Gao HTS: modulates binding between human RGS16 and Galphao; O15492+P09471; bead-based flow cytometry RGS16-Galphao binding, fluorescence; actives lie on both sides; binding response (% of control), % at 10 µM; 220,000 compounds, 0.38% hits; AID 1441;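 active = below 25% or above 175%, edge rows of some plates excepted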;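 also: Galphao activated by GDP with aluminum fluoride before binding; 100% = wells without compound and 0% = beads without RGS; some results beyond the cut were filed as inactive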
# Target sequence (O15492 whole entry, looked up): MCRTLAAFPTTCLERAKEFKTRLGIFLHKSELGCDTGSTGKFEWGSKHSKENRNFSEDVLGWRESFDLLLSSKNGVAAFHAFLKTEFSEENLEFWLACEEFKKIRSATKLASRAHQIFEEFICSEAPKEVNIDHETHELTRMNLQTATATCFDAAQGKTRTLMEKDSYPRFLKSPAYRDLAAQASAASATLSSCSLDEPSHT
# Target sequence (P09471 whole entry, looked up): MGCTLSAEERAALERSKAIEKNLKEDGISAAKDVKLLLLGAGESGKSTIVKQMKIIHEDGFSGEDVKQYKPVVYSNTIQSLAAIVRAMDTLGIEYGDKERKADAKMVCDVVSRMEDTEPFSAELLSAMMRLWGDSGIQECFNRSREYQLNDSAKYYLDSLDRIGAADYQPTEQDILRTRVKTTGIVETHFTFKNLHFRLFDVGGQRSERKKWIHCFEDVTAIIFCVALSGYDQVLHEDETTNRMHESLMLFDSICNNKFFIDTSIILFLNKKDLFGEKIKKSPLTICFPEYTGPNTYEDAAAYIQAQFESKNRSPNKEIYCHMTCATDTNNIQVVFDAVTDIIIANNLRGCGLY
# INS promoter inh cell count: also measured in INS promoter inh; calls as there; normalized cell count, %; measured here: cell count, toxicity; reference of the scale not given here;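 cells exposed to compound for 48 h; stained nuclei by imaging scaled within each plate; lower means fewer cells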
# HSV replic up primary fold: also measured in HSV replic up; calls as there; fold increase; compound at 10 µM; measured here: primary screen fold increase 10 uM; tested in PC3 cells;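 GFP signal in the first replicate; 1 = infected wells without compound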
# An asterisk follows results filed as active; i = inactive; ? = inconclusive; / = not tested or not shown.
# Preview (three entries):
# Assay codes: A = INS promoter inh; B = INS promoter inh cell count; C = GALR2 agonist; D = HSV replic up; E = HSV replic up primary fold; F = PKD1 kinase inh; G = RGS16-Gao HTS
> CCN(CC)C(=O)Cc1cn(C)c2ccccc12
  A: i; B: 134; C: /; D: i; E: 0.96; F: -8; G: 95

> CCOc1ccc(C(=O)c2cccs2)cc1
  A: 0; B: 86; C: -1.2; D: i; E: 0.95; F: 0; G: 100

> COc1ccc(CCNC(=O)c2ccc(=O)[nH]n2)cc1OC
  A: /; B: /; C: -2.3; D: i; E: 1; F: 2; G: 106

# Main list, from the start:
# Assay codes: A = INS promoter inh; B = INS promoter inh cell count; C = GALR2 agonist; D = HSV replic up; E = HSV replic up primary fold; F = PKD1 kinase inh; G = RGS16-Gao HTS
> CCN(CC)C(=O)Cc1cn(C)c2ccccc12
  A: i; B: 134; C: /; D: i; E: 0.96; F: -8; G: 95

> CCOc1ccc(C(=O)c2cccs2)cc1
  A: 0; B: 86; C: -1.2; D: i; E: 0.95; F: 0; G: 100

> COc1ccc(CCNC(=O)c2ccc(=O)[nH]n2)cc1OC
  A: /; B: /; C: -2.3; D: i; E: 1; F: 2; G: 106

> CCOc1cc(C(N)=O)cc(Br)c1OCC
  A: 17; B: 113; C: -2.2; D: i; E: 0.81; F: 0; G: 101

> CN1CCOCCOCCN(C)C1=O
  A: 14; B: 92; C: -0.2; D: i; E: 0.92; F: -6; G: 80

> CO/N=C(\Cn1ncc(N2CCCC2)c(Cl)c1=O)c1ccc(Cl)cc1
  A: -11; B: 105; C: 0.8; D: i; E: 0.89; F: 13; G: 96

> COc1cc(Cl)cc(/C=N/NC(N)=O)c1O
  A: -65; B: 121; C: /; D: i; E: 1.1; F: 0; G: 99

> O=C(Cn1c(=O)sc2ccccc21)Nc1ccccc1
  A: /; B: /; C: -1.2; D: i; E: 0.84; F: 4; G: 107

> CCCOc1ccc2ccccc2c1/C=N/n1c(C)nnc1-n1nc(C)cc1C
  A: -31; B: 72; C: -1.0; D: i; E: 0.8; F: -9; G: 97

> CCOC(=O)N/N=C/c1ccc(N2CCOCC2)s1
  A: -4; B: 114; C: -1.0; D: i; E: 0.96; F: 2; G: 104

> O=C(Nc1ccc(Oc2ccc(C(F)(F)F)cn2)c(Cl)c1)C1CC1
  A: -8; B: 125; C: /; D: /; E: /; F: -1; G: 108

> O=C(NCCCn1ccnc1)c1cc(C(=O)C2CC2)c[nH]1
  A: -19; B: 136; C: -1.1; D: i; E: 0.99; F: 0; G: 94

> COCc1[nH]nc2c1C(c1ccc(OC)cc1)C(C#N)=C(N)O2 (stereo unspecified)
  A: -26; B: 61; C: -0.8; D: i; E: 0.84; F: -1; G: 106

> Cc1cc(C)cc(S(=O)(=O)c2cnc3ccccc3n2)c1
  A: 57; B: 100; C: /; D: i; E: 0.83; F: -3; G: 104

> C=CCn1c(SCc2nc(N)nc(N(C)C)n2)nnc1-c1cccnc1
  A: 44; B: 83; C: -2.2; D: /; E: /; F: 0; G: 102

# Compound profiles, from the list above. Screens in order: INS promoter inh	INS promoter inh cell count	GALR2 agonist	HSV replic up	HSV replic up primary fold	PKD1 kinase inh	RGS16-Gao HTS
# CCOc1cc(C(N)=O)cc(Br)c1OCC in the list: 17	113	-2.2	i	0.81	0	101
# CCOc1ccc(C(=O)c2cccs2)cc1 in the list: 0	86	-1.2	i	0.95	0	100

# Later entries.
# Assay codes: A = INS promoter inh; B = INS promoter inh cell count; C = GALR2 agonist; D = HSV replic up; E = HSV replic up primary fold; F = PKD1 kinase inh; G = RGS16-Gao HTS
> O=C(NC(Cc1ccccc1)c1ccc2c(c1)OCCCO2)c1ccccc1F (stereo unspecified)
  A: -11; B: 124; C: -3.9; D: i; E: 0.97; F: 1; G: 102

> Cc1ccc(NCCC(=O)c2ccc(Br)cc2)cc1
  A: -13; B: 86; C: -1.4; D: i; E: 1; F: -9; G: 70

> Nc1nc(N2CCCCC2)nc(N(c2ccccc2)c2ccccc2)n1
  A: /; B: /; C: -2.1; D: i; E: 1; F: -2; G: 102

> Cc1cc(=O)[nH]c(N2CCN(C(c3ccccc3)c3ccccc3)CC2)n1
  A: 14; B: 191; C: 1.3; D: i; E: 0.88; F: -2; G: 101

> CCOC(=O)N1CCC(N(CCN(C)C)C(=S)Nc2ccccc2OC)CC1
  A: 33; B: 118; C: /; D: i; E: 0.82; F: -13; G: 97

> N=c1n(Cc2ccccc2)c2ccccc2n1CC(O)COc1ccc(Cl)cc1Cl (stereo unspecified)
  A: -14; B: 146; C: /; D: i; E: 0.64; F: 4; G: 102

> COc1cccc(N(C(=O)c2cccs2)c2nc3ccccc3s2)c1
  A: /; B: /; C: -0.1; D: i; E: 1.1; F: 6; G: 68

> Cc1cc2nnc(SCCCCN3C(=O)c4ccccc4C3=O)n2c2ccccc12
  A: 17; B: 89; C: -3.4; D: i; E: 0.91; F: 9; G: 95

> O=C(Nc1ccc(/C=C/c2nc3ccccc3o2)cc1)c1ccc(F)cc1
  A: -46; B: 122; C: -0.8; D: i; E: 0.98; F: 1; G: 102

> O=Cc1cccn1-c1cccc([N+](=O)[O-])c1
  A: 21; B: 86; C: /; D: i; E: 1; F: 4; G: 98

> CCC(NC(=O)NNC(=O)c1ccncc1)(C(F)(F)F)C(F)(F)F
  A: /; B: /; C: /; D: i; E: 1.1; F: /; G: 102

> CN(C(=O)c1ccc(OC2CCN(CCc3ccccc3)CC2)cc1)C1CCCCC1
  A: -22; B: 142; C: /; D: i; E: 0.87; F: -7; G: 105

> CCC(=O)Nc1cccc(-n2nnnc2SCC(=O)N2CCCCC2)c1
  A: 5; B: 157; C: /; D: i; E: 0.98; F: -5; G: 102

> CCOc1cc(/C=N/O)cc(Br)c1OCc1ccc(Cl)cc1
  A: -29; B: 75; C: -0.3; D: i; E: 0.97; F: -9; G: 99

> Cc1cc(Nc2ccccc2)c2c([N+](=O)[O-])ccc(C)c2n1
  A: -57; B: 134; C: 0.3; D: i; E: 1; F: 7; G: 104

> CCC(=O)c1ccc(Oc2ccc(C(=O)c3ccc(C)cc3)cc2[N+](=O)[O-])cc1
  A: -62; B: 124; C: -1.1; D: i; E: 0.93; F: -2; G: 87

> CCOC(=O)C1=C(CC)OC(N)=C(C#N)C1c1ccc(OC)c(OC)c1OC (stereo unspecified)
  A: -33; B: 134; C: /; D: i; E: 0.98; F: -6; G: 107

> CC(C)Cn1cnc2sc3c(c2c1=N)CCCC3
  A: -47; B: 90; C: -0.7; D: i; E: 0.96; F: 0; G: 204

> CCOc1ccccc1NC(=O)C1CCN(C(=O)NCc2ccccc2)CC1
  A: 7; B: 110; C: -2.6; D: i; E: 0.85; F: -5; G: 105

> COc1ccc(N2CCN(c3ncnc4c3[nH]c3ccccc34)CC2)cc1
  A: /; B: /; C: -0.4; D: i; E: 0.86; F: 5; G: 103

> CCOC(=O)c1c(-c2ccccc2)oc2ccc(OC(C)C(=O)O)cc12 (stereo unspecified)
  A: /; B: /; C: /; D: i; E: 1; F: /; G: 92

> CSCc1ccc(C(=O)Nc2cc(C)cc(C)c2)cc1
  A: 9; B: 139; C: -0.5; D: i; E: 0.87; F: 4; G: 108

> COc1ccccc1-c1cc(C(=O)NCCCn2ccnc2)no1
  A: -33; B: 139; C: -0.6; D: i; E: 1.1; F: -7; G: 114

> C=CCOc1nc2c(c(=O)n(C)c(=O)n2C)n1Cc1c(Cl)cccc1Cl
  A: 36; B: 84; C: 0.3; D: i; E: 0.89; F: -8; G: 104

> O=C(NCCCCCCNC(=O)c1cncc(O)c1)c1cncc(O)c1
  A: /; B: /; C: /; D: i; E: 1; F: /; G: 98

> C=CCn1c(C)cc(C(=O)CSc2nc(N)cc(N)n2)c1C
  A: /; B: /; C: /; D: i; E: 0.95; F: 3; G: 99

> O=C(Nc1ccccc1)Nc1nc(-c2ccccc2)cs1
  A: /; B: /; C: /; D: i; E: 1; F: /; G: 103

> O=C(Cc1c(F)cccc1Cl)NC1=NCCS1
  A: /; B: /; C: /; D: i; E: 0.97; F: -7; G: 103

> COc1ccc(N=Nc2[nH]c3ccc(C)cc3c2O)cc1
  A: 27; B: 103; C: -2.2; D: i; E: 0.91; F: -4; G: 99

> COc1ccc(NC(=O)/C(C#N)=C/C=C/c2ccco2)cc1
  A: 20; B: 81; C: 0.2; D: i; E: 0.95; F: -4; G: 55

> C=CCSc1nnc(NC(=O)COc2ccc3ccccc3c2)s1
  A: 46; B: 101; C: -2.7; D: i; E: 0.9; F: -12; G: 104

> CCOC(=O)N1CCC(NC(=O)C(NS(=O)(=O)c2ccc3c(c2)CCN3C(=O)CC)C(C)C)CC1 (stereo unspecified)
  A: /; B: /; C: /; D: i; E: 1; F: 6; G: 111

> O=C(O)CC1S/C(=N/N=C/C2CC=CCC2)NC1=O (stereo unspecified)
  A: 35; B: 128; C: /; D: i; E: 1; F: 0; G: 97

> CC(C)(C)C1=Nn2c(nnc2-c2ccco2)SC1
  A: /; B: /; C: -0.6; D: i; E: 0.85; F: -13; G: 102

> CC/C(=C\C(=O)c1cccnc1)Nc1ccc(C)c(C)c1
  A: /; B: /; C: -0.5; D: i; E: 1.1; F: -3; G: 95

> O=C1NC(=O)c2cc(NC(=O)C3COc4ccccc4O3)ccc21 (stereo unspecified)
  A: 5; B: 139; C: /; D: i; E: 1.1; F: 4; G: 97

> CC(Sc1ccccc1)C(=O)Nc1ccccc1C(=O)N1CCOCC1 (stereo unspecified)
  A: -27; B: 97; C: -0.8; D: i; E: 1; F: -2; G: 103

> COc1ccccc1NC1=NC2(CCCC2)N=C(N)N1
  A: 45; B: 75; C: -0.2; D: i; E: 1.1; F: -1; G: 100

> N#Cc1c(NC(=S)NC(=O)c2ccccc2)sc2c1CCN(CCc1ccccc1)C2
  A: -270; B: 114; C: -0.4; D: ?; E: /; F: -10; G: 100

> N#Cc1nc(-c2ccco2)oc1N1CCN(c2cccc(Cl)c2)CC1
  A: 27; B: 103; C: -3.8; D: i; E: 0.63; F: -12; G: 52

> Cc1ccccc1NC(=S)/C(=C(\[O-])c1ccc(C)c([N+](=O)[O-])c1)[n+]1ccccc1
  A: 11; B: 82; C: -0.9; D: i; E: 1; F: -4; G: 89

> CCOC(=O)/C(C#N)=C/c1cc(C)n(-c2ccc(Br)cc2)c1C
  A: 22; B: 100; C: -2.2; D: /; E: /; F: -3; G: 108

> CC(=O)NS(=O)(=O)c1ccc(NC(=S)NC(=O)c2ccco2)cc1
  A: 27; B: 56; C: 0.2; D: i; E: 1; F: 1; G: 107

> CCCc1cc(C(=O)NCc2cccs2)no1
  A: /; B: /; C: -0.9; D: i; E: 0.94; F: -3; G: 103

> Cn1c(SCC(=O)N2CCOCC2)nnc1-c1cccc(NC(=O)c2ccccc2F)c1
  A: -4; B: 122; C: -0.4; D: i; E: 1; F: -5; G: 76

> Cc1cnc(C(=O)Nc2ccccc2-c2ccc(C)o2)cn1
  A: -20; B: 82; C: -1.1; D: i; E: 1; F: -1; G: 105

> O=C(NNC(=S)Nc1ccccc1)c1ccco1
  A: -13; B: 111; C: -2.2; D: i; E: 0.87; F: -12; G: 99

> CC(C)[C@H](NC(N)=O)C(=O)NCCc1ccc(Cl)cc1
  A: /; B: /; C: /; D: i; E: 0.97; F: -5; G: 111

> CSc1ccccc1NC(=O)c1cnc2n(c1=O)CCS2
  A: /; B: /; C: 0.7; D: i; E: 1.1; F: 7; G: 97

> CCCCN1C(=O)C2NN=C(C(=O)OCC)C2C1=O (stereo unspecified)
  A: -3; B: 246; C: -1.9; D: i; E: 0.96; F: -13; G: 108

> COc1ccc(-c2cnc(SCC(=O)Nc3nc(C(C)(C)C)cs3)n2Cc2ccco2)cc1
  A: -19; B: 109; C: -1.7; D: i; E: 0.9; F: 2; G: 97

> Cc1csc(NC(=O)c2cc(-c3ccccc3)nc3ccccc23)n1
  A: /; B: /; C: -1.7; D: i; E: 1; F: 5; G: 109

> O=C(CSc1nnc(-c2ccco2)o1)NC1CC2CCC1C2 (stereo unspecified)
  A: 0; B: 98; C: -1.6; D: i; E: 0.99; F: 2; G: 100

> C#CCOCCOCCOCCNc1nc(N2CCN(C(=O)[C@H](CCC(=O)O)n3cc(C(N)CC(C)C)nn3)CC2)nc(N2CCN(C(=O)[C@H](CCC(=O)O)n3cc(C(N)[C@H](C)CC)nn3)CC2)n1 (stereo partly specified)
  A: /; B: /; C: /; D: i; E: 1; F: 3; G: 90

> COc1ccc(OC)c2[nH]c(=O)c(CCNC(=O)C(=O)c3c(C)[nH]c4ccccc34)cc12
  A: 14; B: 129; C: /; D: i; E: 0.9; F: 1; G: 110

> Cc1ccccc1OCC(=O)N/N=C1\SCC(=O)N1Cc1ccccc1
  A: 17; B: 94; C: -0.3; D: i; E: 1; F: -1; G: 102

> COc1ccccc1CNC(=O)C(=O)Nc1nccs1
  A: 43; B: 132; C: /; D: i; E: 0.84; F: 4; G: 94
